Screens: PubChem BioAssay, Johns Hopkins Ion Channel Center
KCNQ2 pot: potentiators of rat KCNQ2 potassium channel; Potassium voltage-gated channel subfamily KQT member 2 (Rattus norvegicus), O88943; CHO-K1 KCNQ2, FluxOR thallium flux fluorescence; active compounds read high; B-score at 10 µM; AID 2239, 2010; actives 0.54% (n = 310,000);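 active means fluorescence ratio B-score at least 3 SD of library B-scores, with initial fluorescence B-score within 3 SD, cut at about 5.3 in these data; same plate scores as AID 2156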;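 further: B-score of peak minus minimum over baseline fluorescence ratio after K+ and Tl+ stimulus; positive B-score means potentiation of KCNQ2 with more thallium influx and brighter signal; only the inactives scoring about 0 or higher are listed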
Target sequence (O88943 whole entry, looked up): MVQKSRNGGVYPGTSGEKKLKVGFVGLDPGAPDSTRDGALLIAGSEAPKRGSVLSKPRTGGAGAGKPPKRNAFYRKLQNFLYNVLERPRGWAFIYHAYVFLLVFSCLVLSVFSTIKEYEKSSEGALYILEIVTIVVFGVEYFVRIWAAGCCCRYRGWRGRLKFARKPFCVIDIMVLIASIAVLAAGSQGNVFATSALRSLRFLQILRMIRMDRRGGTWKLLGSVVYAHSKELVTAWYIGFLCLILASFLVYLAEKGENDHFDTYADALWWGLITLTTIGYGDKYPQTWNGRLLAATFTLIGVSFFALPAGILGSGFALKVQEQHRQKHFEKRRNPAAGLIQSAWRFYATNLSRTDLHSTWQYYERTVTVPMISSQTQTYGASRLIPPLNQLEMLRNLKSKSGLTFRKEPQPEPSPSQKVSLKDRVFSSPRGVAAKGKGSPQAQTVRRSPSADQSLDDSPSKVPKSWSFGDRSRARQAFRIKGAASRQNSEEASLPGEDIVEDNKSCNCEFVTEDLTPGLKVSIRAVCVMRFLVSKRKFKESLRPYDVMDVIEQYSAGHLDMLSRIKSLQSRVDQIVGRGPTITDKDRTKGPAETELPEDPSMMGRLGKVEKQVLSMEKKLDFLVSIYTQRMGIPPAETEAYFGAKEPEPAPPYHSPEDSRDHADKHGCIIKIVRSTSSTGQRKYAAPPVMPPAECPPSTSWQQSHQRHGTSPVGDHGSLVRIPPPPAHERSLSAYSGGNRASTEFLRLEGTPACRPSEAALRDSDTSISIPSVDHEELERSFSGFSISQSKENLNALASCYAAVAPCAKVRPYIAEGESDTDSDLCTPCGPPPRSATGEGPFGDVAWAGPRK
KCNQ2 pot baseline: further read-out of KCNQ2 pot, marked with its call; B-score; compound at 10 µM; measured here: initial fluorescence intensity artifact check;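 brightness before thallium and not channel activity; 0 = typical well and far values either way flag optical interference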
Starred values were filed as active, the others as inactive; . = no result given.

Molecule,KCNQ2 pot,KCNQ2 pot baseline
CCOc1ccccc1NC(=O)CN(c1ccc(OC)cc1)S(=O)(=O)c1c(C)[nH]c(=O)[nH]c1=O,1.9,-0.19
CCOc1cc(C(=O)Nc2ncn[nH]2)cc(OCC)c1OCC,0.57,0.71
COc1cccc(OCc2cc(C(=O)NC3CCOCC3)no2)c1,1.4,0.82
CCOc1ccc(C(=O)Nc2nnc(S(=O)(=O)Nc3ccccc3C)s2)cc1,0.75,0.01
CN=C(NC#N)SCC(=O)c1ccc(Cl)cc1Cl,0.36,-0.48
COc1ccc(OC)c(Nc2nc(-c3c(C)nc4ncccn34)cs2)c1,0.82,2
O=c1cc(N2CCCCC2)[nH]c(=O)n1C1CCCCC1,2.1,-1.2
COc1ccc2c(c1)c(C(=O)N/N=C/c1ccc(O)c(O)c1)c(C)n2C,0.56,0.53
Cc1ccccc1CCN(CC(=O)NCc1ccc(F)cc1)C(=O)c1csnn1,0.15,0.01
C=C(C)c1cccc(C(C)(C)NC(=O)NCc2ccc(OC)cc2)c1,0.77,-0.37
O=C1N=C(N2CCOCC2)S/C1=C\c1ccccc1OS(=O)(=O)c1ccccc1,1.1,-1.1
CCc1c(O)nc(SCC(=O)N2CCCCC2)n(-c2ccccc2C)c1=O,0.23,-0.09
COc1ccccc1NC(=S)N(CCCN1CCOCC1)Cc1cn(C)c2ccccc12,0.46,-0.03
CC(C)Cc1c(O)nc(SCC(=O)Nc2ccc3c(c2)CCC3)[nH]c1=O,1.6,-1.2
O=C(CSCC(=O)N1CCCCC1)OCC(=O)c1c[nH]c2ccccc12,0.52,1.1
CN(n1cnc2ccccc2c1=O)S(C)(=O)=O,0.05,-0.77
Cc1ccc(NC(=O)C(=O)NCCOc2ccccc2Cl)cc1,1.2,-0.58
Cc1ccc(N=C2S/C(=C/c3cccc(OCC(=O)O)c3)C(=O)N2C)cc1C,0.43,-0.47
Cc1csc(NC(=O)CSc2nnc(NC(=O)NC(C)(C)C)s2)n1,2.1,-0.23
CC(C)C(=O)c1c(C(C)C)nn2ccccc12,2,0.76
O=C(NC1CCCCC1)C1CCC(CNS(=O)(=O)c2ccccc2)CC1 (stereo not given),0.11,-0.01
COc1ccc(CC(=O)Nc2nnc(SCC(=O)NCc3ccco3)s2)cc1OC,0.05,-0.04
O=C(NCCc1cccc(F)c1)C1CCN(S(=O)(=O)c2ccc(F)cc2)CC1,1.3,-0.1
O=c1cc(CSc2nnc(Nc3ccccc3F)s2)nc2sccn12,0.3,-0.91
O=C(Nc1ccc(NS(=O)(=O)c2ccccc2)cc1)c1cccnc1,1.1,0.84
COc1ccc(C(=O)NC2CCCCC2)cc1S(=O)(=O)N1CCOCC1,0.48,0.17
Cc1ccc(NC(=O)CCCc2nc3ccccc3s2)c(O)c1,0.85,-0.11
Cc1ccc(CNC(C)(C)CO)cc1,0.76,-0.16
COc1cccc(NCc2cc(=O)oc3cc(C)c(O)cc23)c1,1.1,0.3
COC(C/C=C\[C@H](O)[C@@H](C)OCc1ccccc1)OC,0.75,-0.75

Continued; it opens with the two that closed the last part.
Molecule,KCNQ2 pot,KCNQ2 pot baseline
COc1cccc(NCc2cc(=O)oc3cc(C)c(O)cc23)c1,1.1,0.3
COC(C/C=C\[C@H](O)[C@@H](C)OCc1ccccc1)OC,0.75,-0.75
CCOC(=O)C(C)Oc1c(C(=O)OC)sc2ncccc12 (stereo not given),1.2,0.53
CCCc1[nH]nc2c1C1(C(=O)N(C(C)C)c3ccccc31)C(C#N)=C(N)O2 (stereo not given),0.05,0.71
COc1ccc(OC)c(NC(=O)C2CC(=O)N(CCc3ccccc3)C2)c1 (stereo not given),1.6,-1.3
N#CCCSCc1ccc2oc(C(=O)O)cc2c1,0.87,-0.68
COC(=O)c1ccccc1NC(=O)C1=CC(c2cccs2)=NS(=O)(=O)N1C,0.99,1.2
CN(Cc1ccccc1)Cc1nc2c([nH]1)c(=O)n(C)c(=O)n2C,0.81,-0.59
CCn1ccc(C(=O)Nc2ncc(C)s2)n1,0.21,1
c1ccc(Cn2c(-c3cccs3)nc3nc4ccccc4nc32)cc1,1.2,0.71
O=C(c1cccc(NC2=NC3CS(=O)(=O)CC3S2)c1)N1CCN(c2cccc(Cl)c2)CC1 (stereo not given),1.8,-0.58
CN(C)CCCN(C(=O)c1ccc(S(=O)(=O)N2CCCCCC2)cc1)c1nc2ccc(Br)cc2s1,0.22,2.2
CN(C(=O)CSc1nc(-c2ccccc2)c(-c2ccccc2)o1)C1CCS(=O)(=O)C1 (stereo not given),1,0.34
O=C(CCS(=O)(=O)Cc1ccccc1F)NCc1ccccc1Cl,0.87,-0.59
Cc1cc2cc(CN(CC3CCCO3)C(=S)Nc3ccccc3)c(=O)[nH]c2cc1C (stereo not given),0.03,-0.87
O=C(CCS(=O)(=O)c1ccc(Cl)cc1)Nc1nc(-c2cccnc2)cs1,0.76,0.38
Cc1cc(NS(=O)(=O)c2ccc(NC(=O)/C=C/c3c(F)cccc3Cl)cc2)nc(C)n1,2.1,-1.8
COC(=O)[C@@H](NC(=O)c1ccccc1OC1CCN(S(C)(=O)=O)CC1)C(C)C,0.02,-0.4
CCOC(=O)C1=C(C)NC(=O)CC1c1ccccc1OC (stereo not given),0.28,0.62
CC1COC(Cn2c3ccccc3c3ccccc32)O1 (stereo not given),0.06,0.47
O=C(CN1CCC(O)(c2ccc3c(c2)OCO3)CC1)N1CCOCC1,1.7,-0.59
Cc1c(CC(=O)NCC(C)C)c(=O)oc2cc3c(cc12)CCC(C)(C)O3,0.27,0.64
Cc1cc(C)nc(CCNC(=O)c2cc(COc3c(F)cccc3F)on2)n1,0.39,0.59
CCn1cc(C(=O)NCc2ccccc2F)c(=O)c2ccc(C)nc21,2.4,-0.65
CC(C)NC(=O)N1CCC(n2nccc2NC(=O)CCOc2ccccc2)CC1,2.2,-0.05
O=C(c1ccc([N+](=O)[O-])o1)N1CCN(c2nc3c(Cl)cccc3s2)CC1,0.44,-1.2
C/C(=N\NC(=O)c1ccc(CN2CCOCC2)cc1)c1cccc([N+](=O)[O-])c1,0.27,-1.2
Cc1cc(C)cc(N(C(=O)c2nsc(Cl)c2Cl)C(C(=O)NC2CCCC2)c2ccc(O)cc2)c1 (stereo not given),0.51,-2.7
CC1(C)Cc2c(sc(NC(=O)C(C)(C)C)c2C#N)C(C)(C)N1,0.31,-2.6
Cn1c2ccccc2c2cc([N+](=O)[O-])ccc21,0.82,-0.18
S=c1[nH]nc(C2CCCCC2)n1/N=C/c1cccc(Cl)c1Cl,0.11,2.8
Cc1ccc(C(=O)N/C(=C\c2ccc(-c3cccc([N+](=O)[O-])c3)o2)C(=O)NCCCN(C)C)cc1,1.7,0.69

In the list so far, these have fluorine.
Molecule,KCNQ2 pot,KCNQ2 pot baseline
Cc1ccccc1CCN(CC(=O)NCc1ccc(F)cc1)C(=O)c1csnn1,0.15,0.01
O=C(NCCc1cccc(F)c1)C1CCN(S(=O)(=O)c2ccc(F)cc2)CC1,1.3,-0.1
O=c1cc(CSc2nnc(Nc3ccccc3F)s2)nc2sccn12,0.3,-0.91
O=C(CCS(=O)(=O)Cc1ccccc1F)NCc1ccccc1Cl,0.87,-0.59
Cc1cc(NS(=O)(=O)c2ccc(NC(=O)/C=C/c3c(F)cccc3Cl)cc2)nc(C)n1,2.1,-1.8
Cc1cc(C)nc(CCNC(=O)c2cc(COc3c(F)cccc3F)on2)n1,0.39,0.59
CCn1cc(C(=O)NCc2ccccc2F)c(=O)c2ccc(C)nc21,2.4,-0.65

The results go on.
Molecule,KCNQ2 pot,KCNQ2 pot baseline
CC(=O)c1ccc(NC(=O)CSc2nnc(NC(=O)C3CC3)s2)cc1,0.81,1.3
Nc1cccnc1Oc1ccc(F)cc1,0.08,1.6
COc1cc(NS(=O)(=O)c2ccc(NC(=O)COc3ccccc3Cl)cc2)nc(OC)n1,1.4,0
CNCCCOc1ccc2c(c1)CCC2,1,0.55
COc1ccc(CCN=C(N)NS(=O)(=O)c2ccccc2)cc1OC,1.4,-0.79
CCC(C)C(NC(=O)C1CCC(C)CC1)C(=O)NC(C(=O)OC)C(C)C (stereo not given),0.54,-0.01
CCCOc1ccc(C(=O)CCC(=O)NNC(=O)c2ccncc2)cc1,0.16,1
O=C(CC(=O)N/N=C/c1ccc(C(=O)O)cc1)NCCc1ccccc1,1.4,0.01
Cc1ccc(C(=O)c2cc3ccccc3o2)cc1C,0.32,-1
COc1ccccc1C(=O)NC(=O)COC(=O)CCNS(=O)(=O)c1ccccc1,2.1,0.47
Cn1c(=O)cc(OCCCC(=O)NCc2ccco2)c2ccccc21,0.99,-0.75
Nc1nc2c(s1)COc1ccccc1-2,0.96,-0.18
COCCn1c(N)c(N(Cc2ccccc2)C(=O)C2=COCCO2)c(=O)[nH]c1=O,0.06,0.64
O=C(N/C(=C/c1cccc([N+](=O)[O-])c1)C(=O)N1CCCCC1)c1cccs1,1.1,-1
COc1ccc(NC(=O)c2c(C(F)(F)F)nn(C)c2Cl)cc1,0.77,0.12
COc1cc(/C=C2\SC(=S)N(Nc3ncc(C(F)(F)F)cc3Cl)C2=O)cc(OC)c1OC,0.43,0.61
CC(C)CN1CCN(Cc2cccc3cccnc23)CC1CCO (stereo not given),0.04,-0.28
O=C(O)CCC(=O)N1CCc2cc(S(=O)(=O)N3CC=C(c4ccccc4)CC3)ccc21,0.28,0
Cc1cccc(N(CC(=O)NC2CCCC2)C(=O)CCCC(=O)Nc2ccccn2)c1,0.71,-1.5
NC(=O)C1CCN(C(=O)CCC(=O)c2ccc(Br)cc2)CC1,0.16,2
COC(=O)c1cc(NC(=O)CC2CCCC2)cc(C(=O)OC)c1,0.03,-1.6
CC(C)CCNC(=O)NC(=O)COC(=O)c1cc(S(=O)(=O)N2CCOCC2)ccc1N1CCCCC1,0.43,-0.3
Clc1ccccc1N=C1SCCS1,0.66,-0.18
CC1(c2ccc3ccccc3c2)NC(=O)N(CC(=O)O)C1=O (stereo not given),1.9,0.21
CN(C)CC(C)(C)CNS(=O)(=O)c1ccc(Cl)c(Cl)c1,0.33,.
N#Cc1ccc(CSc2nc(N)cc(=O)[nH]2)cc1,0.42,-1.9
Cc1ccc(C(C)C)c(OCC(=O)NN=C2CCCC2)c1,0.97,-0.21
COC(=O)c1ccc(OCC(O)Cn2nnc3ccccc32)cc1 (stereo not given),0.19,0.18
CC(=O)c1cccc(NC(=O)Cn2cc3c(n2)CCCC3)c1,0.94,-0.02
CN(CCC#N)C(=O)CSc1nnc(-c2ccco2)n1N,1.7,0.72

The list continues.
Molecule,KCNQ2 pot,KCNQ2 pot baseline
COc1ccc(C(=O)c2c3ccc([N+](=O)[O-])cc3[n+]([O-])n2CCCC(N)=O)cc1,0.35,0.45
Nc1nc(-c2c(Cl)cccc2Cl)no1,0.72,1.5
CCNC(=S)NNC(=O)c1csc2c1CCC(C)C2 (stereo not given),2.1,-1.3
Cc1csc(SCC(=O)N2CCN(S(=O)(=O)c3ccc(Cl)cc3)CC2)n1,0.71,1.4
COc1ccc(OC)c(C(=O)NC(CC(N)=O)c2ccc(NCc3ccc(F)c(F)c3)c([N+](=O)[O-])c2)c1 (stereo not given),1.4,-0.55
CCN(C(=O)COC(=O)CNC(=O)c1ccc2ccccc2c1)C1CCS(=O)(=O)C1 (stereo not given),0.22,0.26
CC1CCc2c(C(=O)Oc3cccc(-n4cnnn4)c3)csc2C1 (stereo not given),0.34,-0.28
CCOC(=O)C1CCN(C(=O)CNS(=O)(=O)c2ccc(Br)s2)CC1,0.17,-2.5
CCCOc1ccccc1NC(=O)c1ccc([N+](=O)[O-])cc1,0.94,-2
O=C(CSc1nnc2c(n1)[nH]c1ccccc12)NCc1ccccc1F,0.48,-0.15
O=c1[nH]c(CSc2ccccn2)nc2c1oc1ccccc12,0.02,-0.38
Cc1ccc(S(=O)(=O)N2CCN(C(=O)Cc3c(F)cccc3Cl)CC2)cc1,2,0.04
Cc1ccc(NC(=O)c2cnccn2)c(OC(F)F)c1,0.67,0.13
CCC(C)N(C(=O)COC(=O)c1nc2nc(C)cc(C)n2n1)C1CCS(=O)(=O)C1 (stereo not given),1.1,2
O=C(NCc1ccc(F)cc1)c1ccccc1OCc1ccccc1,0.48,-1.7
O=C1C2C3C=CC(C3)C2C(=O)N1c1ccc(N2CCN(c3ccccn3)CC2)c([N+](=O)[O-])c1 (stereo not given),0.35,-0.81
COc1ccc(N2C(S)=C(C#N)C(=O)NC23CCCCC3)cc1,1.3,0.24
N=c1c2c3c(sc2ncn1CCCO)CCCC3,0.43,-0.62
COc1ccc(Nc2nc(N/N=C/c3ccc(N(C)C)cc3)nc(C)c2[N+](=O)[O-])cc1,0.46,-1.1
CCN(CC)S(=O)(=O)c1cccc(NC(=O)c2ccc(Sc3nncn3C)c([N+](=O)[O-])c2)c1,0.24,-2.1
COc1cccc2cc(C(=O)C3=C(O)C(=O)N(CCN4CCOCC4)C3c3ccc(C(C)(C)C)cc3)oc12 (stereo not given),1.1,0.42
COC(=O)C[N+](C)(C)CC#Cc1ccccc1,0.57,-0.64
CC(CCN1CCN(c2ccccc2)CC1)c1ccccc1 (stereo not given),0.49,1.6
CNc1ccccc1C(C)(C)c1cc(-c2ccc(F)cc2)no1,0.13,0.85

Some of the compounds tested (hit frequency here may not be typical).
